miR-21 FLuc: miR-21 reporter, rising signal | HeLa miR-21 FLuc reporter, luciferase, 48 h | Potency, µM (titrated, usually from 38.3 µM), without a hit: at the highest dose reporter change, positive = more light | 340,000 tested, under 10 active; active = well fitted rising curve with a large enough effect; inconclusive = small, poorly fitted or top-dose-only effect; inactive = no such curve, though single readings can be large or run the other way;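 also: % of control where 0% means no effect; miR-21 action dims this reporter so a rising signal means less miR-21 action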
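HeLa miR-21-FLuc reporter line, endogenous miR-21; 2000 cells/well in DMEM/10% FBS; compound titration up to ~40uM final, 48 h, 37 degree Celsius; luciferase detection reagent, 15 min lysis, CCD luminescence.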
Rango-impB inh: Rango-importin beta binding inhibition; Q14974; Rango CFP/YFP FRET sensor + importin beta, 45 min; Potency, µM (top dose mostly 92.2 µM), without a hit: at the highest dose inhibition of complex formation; 340,000 compounds, 0.031% hits; active = rising FRET ratio curve, often small or poorly fitted; inconclusive = mostly compound fluorescence or quenching in the first reads; inactive = flat curves in all reads;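 also: potency is read from the fitted curve at half-maximal effect; 0% = DMSO wells and 100% = buffer wells lacking importin beta; nearly all actives have a fitted effect of over 15% in size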
Target sequence (Q14974 whole entry, looked up): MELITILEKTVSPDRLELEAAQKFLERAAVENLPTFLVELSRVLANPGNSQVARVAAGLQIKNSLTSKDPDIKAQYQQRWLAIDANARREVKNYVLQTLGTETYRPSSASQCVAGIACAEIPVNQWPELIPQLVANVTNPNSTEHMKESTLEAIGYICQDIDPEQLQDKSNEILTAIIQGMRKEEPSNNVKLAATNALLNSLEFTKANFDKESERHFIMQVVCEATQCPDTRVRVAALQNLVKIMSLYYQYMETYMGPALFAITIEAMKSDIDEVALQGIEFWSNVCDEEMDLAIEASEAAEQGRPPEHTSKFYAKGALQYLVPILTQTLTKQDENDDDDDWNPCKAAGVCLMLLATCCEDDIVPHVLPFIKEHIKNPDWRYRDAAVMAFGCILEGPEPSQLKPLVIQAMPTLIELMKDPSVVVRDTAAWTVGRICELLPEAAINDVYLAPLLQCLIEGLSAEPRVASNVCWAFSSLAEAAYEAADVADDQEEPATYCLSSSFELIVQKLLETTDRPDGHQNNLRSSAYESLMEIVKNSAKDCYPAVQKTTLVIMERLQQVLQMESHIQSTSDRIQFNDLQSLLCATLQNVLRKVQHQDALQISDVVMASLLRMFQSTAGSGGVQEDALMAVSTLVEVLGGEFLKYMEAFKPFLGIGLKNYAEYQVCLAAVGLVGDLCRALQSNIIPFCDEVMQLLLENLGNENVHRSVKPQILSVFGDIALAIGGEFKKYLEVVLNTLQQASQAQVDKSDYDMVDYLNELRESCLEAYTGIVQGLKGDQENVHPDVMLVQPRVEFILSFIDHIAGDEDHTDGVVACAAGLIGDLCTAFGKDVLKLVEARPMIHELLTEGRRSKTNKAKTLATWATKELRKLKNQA
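Inhibition scored from the CFP 486 nm/YFP 530 nm FRET ratio 45 min after adding 0.125 microM importin beta to 50 nM Rango biosensor preincubated 5 min with compound (room temperature, PBS with DTT, Tween-20, BSA). No-importin wells as positive control.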
GLA inh pH 4.5: inhibitors of human alpha-galactosidase A at pH 4.5; activity change, negative = inhibition, % at 105 µM; purified enzyme, 4-MU-alpha-Gal fluorescence, pH 4.5; 230,000 tested, under 10 active; P06280; AID 1467; inconclusive = small, poorly fitted or top-dose-only inhibition, or a rising curve; inactive = flat fitted curve, though single readings scatter; no compound was filed as active;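 also: 0% = full activity with enzyme and -100% = basal without enzyme; dose as in the result columns while the protocol names 77 µM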
Rango dissoc inh: inhibition of RanGTP-driven Rango-importin beta dissociation | O95149+P62826 | Biochemical FRET Rango-importin beta, RanGTP-induced dissociation | Potency, µM (series often up to 46.1 µM), for the others: at the highest dose activity change, negative = inhibition | 340,000 compounds, 0.071% hits | AID 540253; active means falling FRET ratio curve, often poorly fitted, with flat reads before Ran was added; inconclusive means other falling curves, or compound fluorescence or quenching; inactive means flat or rising ratio curve;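 also: potency is read from the fitted curve at half-maximal effect; % of control where 0% means no effect; nearly all actives have a fitted effect of over 45% in size; -100% = wells without RanGTP and RCC1; the record marks most hits as doubtful in a second field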
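Compounds sat 5 min at room temperature with 0.1 uM Rango biosensor plus 0.25 uM importin beta, then FRET pre-read. RanGTP-RCC1 (0.6 uM Ran, 2mM GTP, 0.2 uM RCC1) added for 45 min, and the CFP/YFP post-read measured blocked complex dissociation.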
Active calls of the source: *; ? = inconclusive; · = not tested or not shown; & = joins results of further samples; [ ] = remark or other dose. The list is partial; the hit share may differ from the screen's.

The line under a structure holds: miR-21 FLuc	GLA inh pH 4.5	Rango dissoc inh	Rango-impB inh
Cc1c(NC(=O)c2cccc(S(=O)(=O)N3CCOCC3)c2)c(=O)n(-c2ccccc2)n1C
    -1%	8	2%	2.8%
Cc1cccc(C2=NN(c3ccc(Br)cc3)[C@@H](C(=O)N3CCOC3=O)[C@@H]2c2ccccc2)c1
    ·	3	?	?
O=C(CN1CCN(CC(=O)Nc2ccccc2Cl)CC1)NCC1(N2CCCCC2)CCCCC1
    ·	·	43%	-3.6%
COc1cccc(C2=NOC(C(=O)N3CCOCC3)C2)c1 (configuration not stated)
    -40%	17	9%	0.4%
COc1ccc(OC)c(N2C(=O)[C@@H]3C(c4ccccc4Cl)=NO[C@@H]3C2=O)c1
    0%	-15	-19%	-1.3%
Cc1cccc(C)c1NC(=O)C1=C(O)c2sccc2N(C)S1(=O)=O
    8%	-13	?	?
O=C(NCCc1ccccc1)C1CCC(=O)N1C1CCCC1 (configuration not stated)
    -2%	·	1%	-3.9%
CCOC(=O)c1c(C)[nH]c(C(=O)CN2C(=O)NC(CC)(c3ccccc3)C2=O)c1C (configuration not stated)
    2%	-6	3%	0.8%
Cc1cc(C)c(S(=O)(=O)N2CCOC2CNC(=O)C(=O)NCc2ccco2)c(C)c1 (configuration not stated)
    -3%	6	1%	?
N#CC1(c2ccccc2)CCC(=NO)CC1 (configuration not stated)
    -6%	-6	-3%	-0.7%
CC(Sc1nnc(-c2cccnc2)n1N)C(=O)Nc1ccc2c(c1)OCCO2 (configuration not stated)
    ·	·	-15%	-1.2%
CC(C)[C@H](NS(=O)(=O)c1ccccc1)C(=O)OCC(=O)NC1CCCCC1
    ·	·	-30%	-0.5%
COc1cc2c(cc1/C=C1/NC(=O)N(CC(=O)Nc3ccccc3)C1=O)OCO2
    -4%	2	?	2.3%
Cc1ccc(C)n1-c1ccc2c(c1)COC2=O
    -2%	5	·	·
CCOC(=O)/C(C#N)=C/c1ccc(OCC(=O)Nc2ccc(OC)cc2)c(OC)c1
    -1%	2	-5%	4.5%
Cc1cc(SCC(=O)N/N=C/c2ccc(O)c(O)c2)c(C)cc1Br
    -3%	0	6%	-2.4%
O=C(CCn1nc(-c2ccc(F)cc2)ccc1=O)NCc1ccccc1
    -1%	3	6%	-3.1%
NC(=O)COC(=O)CNC(=O)c1cc(Cl)cc([N+](=O)[O-])c1
    0%	-4	1%	8.3%
OC(c1ccccc1)C(Nc1ccccn1)c1ccccc1 (configuration not stated)
    ·	·	5%	-6.7%
Cn1nnnc1SCC(=O)N1CCN(c2ccc(Cl)cc2)CC1
    17%	-5	-13%	5.7%
Cc1nn(C)c(C)c1CN(C)S(=O)(=O)c1ccc(F)cc1
    1%	-1	-10%	-1.6%
CC(C)c1nc(SCC(=O)N2CCc3ccccc32)n[nH]1
    -40%	1[21.1 µM]	-2%	0.8%
CCC(C)(C(=O)NC1CCCCC1)N(C(=O)Cc1cccs1)c1ccccc1 (configuration not stated)
    -2%	-7	1%	3.8%
COc1ccc(S(=O)(=O)Oc2cccc(C(=S)N3CCOCC3)c2)cc1
    14%	·	0%	?
CC(C)(C)c1ccc(OCC(=O)NNC(=O)Nc2ccccc2)cc1
    -2%	·	-6%	-0.9%
O=C(CSc1ncccn1)Nc1ccc2c(c1)CCC2
    -17%	3	4%	-0.7%
CC[C@@H]1C(c2ccc(F)cc2)=NN(c2ccccc2)[C@H]1C(=O)N1CCOC1=O
    ·	-9	?	?
O=C(c1cccc(S(=O)(=O)N2CCOCC2)c1)N1CCCCCC1
    -4%	-3	-3%	-1.5%
CCC(N=c1cc(-c2ccc(OC)c(OC)c2)oc2ccc(C)cc12)C(=O)O (configuration not stated)
    -38%	-3	-10%	?
O=C(C1=C[C@@H](C2CC2)C[C@@H](OCc2ccc(CO)cc2)O1)N1CCN(Cc2ccc3c(c2)OCO3)CC1
    16%	1	4%	1.2%
CCOC(=O)c1ccc2c(c1)nc(C1CCN(S(=O)(=O)c3cccs3)CC1)n2CC
    28%	1	4%	0.9%
O=C(CN1CCN(c2ccccc2O)CC1)NC(=O)NCc1ccccc1
    ·	·	1%	0.1%
COc1ccc(S(=O)(=O)n2cccc2)cc1OC
    -9%	·	20%	0.2%
O=C(CCCOc1ccccc1)Nc1cc(S(=O)(=O)N2CCOCC2)ccc1N1CCOCC1
    ·	·	-20%	-0.4%
NS(=O)(=O)c1ccc(CNC(=S)NCc2ccc(Cl)cc2)cc1
    -3%	5	-4%	-3.2%
O=C(C[C@H]1C[C@H](C(=O)N2CCOCC2)[C@@]2(CCC3CCCC3)c3[nH]c4cc(-c5ccco5)ccc4c3CCN2C1=O)NCCCn1ccnc1
    ·	·	-8%	3.7%
CC(C)c1cc(=O)n2[nH]c(SCc3ccc(Cl)cc3)nc2n1
    -3%	·	-21%	-0.5%
Cc1ccc(O)c(C(=O)c2cnc3c(c2)COc2ccc(C)cc2-3)c1
    -10%	0	12%	1.5%
COc1cccc(NC(=O)CNC(C)CCC(C)C)c1 (configuration not stated)
    -2%	1	-10%	6.3%
CCOC(=O)c1ccc(NS(C)(=O)=O)cc1
    -9%	0	5%	-0.7%
Cc1ccc(N2CC(C(=O)N3CCC(C(=O)NC(C)(C)C)CC3)CC2=O)cc1 (configuration not stated)
    10%	·	9%	2.7%
CC(=O)c1sc(C(C)(C)C)cc1NC(=O)c1ccccc1C(=O)O
    -2%	6	-3%	-0.8%
O=C1c2cccc3cccc(c23)C(=O)N1CCN1CCN(CC(O)COc2ccc3ccccc3c2)CC1 (configuration not stated)
    2%	-21	31%	-0.8%
CC(C)CN(C(=O)COC(=O)c1cnc(Cl)c(Cl)c1)c1c(N)n(Cc2ccccc2)c(=O)[nH]c1=O
    ·	·	13%	-0.9%
O/N=C/c1ccc(-c2cc(Cl)ccc2Cl)o1
    -5%	-4	5%	-0.1%
CCOC(=O)c1[nH]cnc1C(=O)NC1CCN(C(=O)OC(C)(C)C)CC1
    ·	·	1%	4.4%
Cc1cc(C)cc(OCC(=O)N(Cc2cccs2)C2CCS(=O)(=O)C2)c1 (configuration not stated)
    -7%	-4	-5%	1.1%
COC(=O)C(Cc1ccc(O)cc1)N1Cc2ccccc2C1=O (configuration not stated)
    -54%	·	21%	9.0%
CCN(C(=O)COC(=O)c1cccc2ccccc12)c1c(N)n(Cc2ccccc2)c(=O)[nH]c1=O
    ·	·	16%	0.7%
Cc1ccc(-n2c(Cn3c(C)nc4ccccc43)n[nH]c2=S)cc1
    -5%	0	2%	-0.8%

(next part)
The line under a structure holds: miR-21 FLuc	GLA inh pH 4.5	Rango dissoc inh	Rango-impB inh
CCN(C(=O)COC(=O)c1cccnc1SC)C1CCCCC1
    ·	·	11%	0.0%
COC(=O)c1ccccc1NC(=O)c1ccc(-c2ccccc2F)o1
    -14%	-5	0%	-0.3%
CN(C(=O)COc1ccc(-c2nnco2)cc1)C1CCS(=O)(=O)C1 (configuration not stated)
    ·	·	-6%	0.7%
O=C(COc1ccccc1)NNc1c2ccccc2nc2ccccc12
    20%	18	-28%	0.0%
CNC(=O)c1nn(-c2ccccc2)ccc1=O
    -7%	0	8%	2.3%
Oc1ccc(Br)cc1-c1cc(-c2ccccc2Cl)[nH]n1
    -24%	-28	-2%	-2.2%
COc1ccc(C(C(=O)NC2CCCCC2)N(C(=O)CCCC(=O)Nc2ccccn2)c2ccc3c(c2)OCCO3)cc1 (configuration not stated)
    -2%	-1	0%	5.6%
C/C=C/C=C/C(=O)N1CC2(CC(c3cccc(NC(=O)CCCCC)c3)=NO2)C[C@H]1C(N)=O (some centres not stated)
    0%	6	-19%	-4.7%
Cc1ccc(CNC(=O)Cn2cccc2C(=O)c2ccccc2C)cc1
    -17%&-32%	-11	1%	-1.3%
COc1ccc2c(Cl)c(C(=O)NC3CCS(=O)(=O)C3)sc2c1 (configuration not stated)
    -25%	8	-17%	-0.4%
O=S(=O)(Nc1nccs1)c1ccc(Cl)cc1
    -3%	5	25%	5.3%
COc1ccc(N2CCN(C(=O)COC(=O)/C=C/c3ccc(OC(F)F)cc3)CC2)cc1
    ·	·	38%	-0.8%
Cc1ccc(S(=O)(=O)NCC(=O)OCC(=O)c2cc(C)n(-c3ccccc3)c2C)cc1
    -14%	-5	4%	-0.9%
Cc1cc(NC(=O)Nc2cc(F)ccc2F)no1
    -6%	3	3%	7.4%
N/C(=N\N=C\c1cccc(O)c1)c1nonc1N
    -2%	0	-4%	-1.3%
Cc1ccc(O)c(NC(=O)c2ccc3c(c2)C(=O)N(CC(C)C)C3=O)c1
    -49%	·	-6%	-1.3%
COC(=O)c1ccc2[nH]c(C)cc(=O)c2c1
    -5%	0	11%	0.5%
O=C(Nc1ccc(C(=O)N2CCOCC2)cc1)C1CC1
    ·	·	10%	-2.0%
CN(C)c1ccc(S(=O)(=O)N2CCCCC2)cc1NC(=O)CCNC(=O)c1ccco1
    ·	·	8%	-0.4%
CCOC(=O)N1CCN(C(=O)CN(c2ccccc2OC)S(=O)(=O)c2ccc(OC)cc2)CC1
    1%	7	4%	1.3%

Record cards, from the list above:
`Cc1ccc(O)c(NC(=O)c2ccc3c(c2)C(=O)N(CC(C)C)C3=O)c1` is listed with miR-21 FLuc: -49%; GLA inh pH 4.5: ·; Rango dissoc inh: -6%; Rango-impB inh: -1.3%
`COC(=O)c1ccc2[nH]c(C)cc(=O)c2c1` is listed with miR-21 FLuc: -5%; GLA inh pH 4.5: 0; Rango dissoc inh: 11%; Rango-impB inh: 0.5%

Remaining list, next part:
The line under a structure holds: miR-21 FLuc	GLA inh pH 4.5	Rango dissoc inh	Rango-impB inh
Cc1cc(-c2nnc(CCC(=O)NCCc3ccccc3F)o2)no1
    -9%	·	4%	0.4%
COc1cc(CN2CCN(c3cccc(C)c3C)CC2)cc([N+](=O)[O-])c1O
    1%	-17	1%	2.9%
O=S(=O)(c1ccc(Cl)cc1)N1CCN(CCc2ccccc2)CC1
    -1%	·	-1%	-1.1%
Cc1ccc(S(=O)(=O)CC(=O)Nc2c(C)n(C)n(-c3ccccc3)c2=O)cc1
    -1%	-7	-3%	?
COc1ccc(C(C(=O)NC2CCCCC2)N(Cc2cccs2)C(=O)Cc2c[nH]c3ccccc23)cc1OC (configuration not stated)
    3%	6	-3%	2.0%

Part of the list above in a different format:
| Compound | miR-21 FLuc | GLA inh pH 4.5 | Rango dissoc inh | Rango-impB inh |
| --- | --- | --- | --- | --- |
| Cc1c(NC(=O)c2cccc(S(=O)(=O)N3CCOCC3)c2)c(=O)n(-c2ccccc2)n1C | -1% | 8 | 2% | 2.8% |
| Cc1cccc(C2=NN(c3ccc(Br)cc3)[C@@H](C(=O)N3CCOC3=O)[C@@H]2c2ccccc2)c1 | · | 3 | ? | ? |
| O=C(CN1CCN(CC(=O)Nc2ccccc2Cl)CC1)NCC1(N2CCCCC2)CCCCC1 | · | · | 43% | -3.6% |
| COc1cccc(C2=NOC(C(=O)N3CCOCC3)C2)c1 (configuration not stated) | -40% | 17 | 9% | 0.4% |
| COc1ccc(OC)c(N2C(=O)[C@@H]3C(c4ccccc4Cl)=NO[C@@H]3C2=O)c1 | 0% | -15 | -19% | -1.3% |
| Cc1cccc(C)c1NC(=O)C1=C(O)c2sccc2N(C)S1(=O)=O | 8% | -13 | ? | ? |
| O=C(NCCc1ccccc1)C1CCC(=O)N1C1CCCC1 (configuration not stated) | -2% | · | 1% | -3.9% |
| CCOC(=O)c1c(C)[nH]c(C(=O)CN2C(=O)NC(CC)(c3ccccc3)C2=O)c1C (configuration not stated) | 2% | -6 | 3% | 0.8% |
| Cc1cc(C)c(S(=O)(=O)N2CCOC2CNC(=O)C(=O)NCc2ccco2)c(C)c1 (configuration not stated) | -3% | 6 | 1% | ? |
| N#CC1(c2ccccc2)CCC(=NO)CC1 (configuration not stated) | -6% | -6 | -3% | -0.7% |
| CC(Sc1nnc(-c2cccnc2)n1N)C(=O)Nc1ccc2c(c1)OCCO2 (configuration not stated) | · | · | -15% | -1.2% |
| CC(C)[C@H](NS(=O)(=O)c1ccccc1)C(=O)OCC(=O)NC1CCCCC1 | · | · | -30% | -0.5% |
| COc1cc2c(cc1/C=C1/NC(=O)N(CC(=O)Nc3ccccc3)C1=O)OCO2 | -4% | 2 | ? | 2.3% |
| Cc1ccc(C)n1-c1ccc2c(c1)COC2=O | -2% | 5 | · | · |

Assay outcomes: PubChem, National Center for Advancing Translational Sciences (NCATS)
